Screening data (PubChem BioAssay)
RE007 growth inh: qHTS Assay for Inhibitors of the HIV-1 protein Vpr; S. pombe RE007 Vpr strain, BacTiter-Glo ATP luminescence, 24 h; control for the full effect not named in the record; Potency, µM (titrated, usually from 92.2 µM), for the others: at the highest dose activity change, negative = less growth; 0.21% of 360,000 active; active = well fitted falling curve with a large enough effect; inconclusive = small, poorly fitted or top-dose-only effect; inactive = no such curve, though single readings can be large or run the other way;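 further: on the % scale 0 is the no-effect control and ±100 the full control effect; nearly all actives have a fitted effect of over 50% in size; the assay follows cell death caused by Vpr and the record does not say whether a fall means rescue or toxicity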
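Fission yeast RE007 carrying one integrated HIV-1 vpr copy, seeded at OD 0.01 in PMG+AL medium with 23 nL pinned compound. Grown 24 h at 30 degrees; viability read by BacTiter-Glo luminescence after 5 min.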
Cruzain inh noDet: qHTS Assay for Promiscuous and Specific Inhibitors of Cruzain (without detergent); Cruzipain (Trypanosoma cruzi), P25779; purified cruzain, Z-FR-AMC fluorescence, no detergent; Potency, µM, inactives show max response, negative = inhibition, usual class: inhibitors; 2.3% of 200,000 active; active means well fitted curve in the direction sought with a large enough effect; inconclusive means small, poorly fitted or top-dose-only effect, or another doubt; inactive means no such curve, though single readings can be large; an effect the other way counts as inactive or inconclusive;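 further: plate controls were enzyme without inhibitor for no effect and buffer without enzyme for full effect; nearly all actives have a fitted effect of over 40% in size; top concentration of the series not given in the record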
Target sequence (P25779 123-467 limits assumed): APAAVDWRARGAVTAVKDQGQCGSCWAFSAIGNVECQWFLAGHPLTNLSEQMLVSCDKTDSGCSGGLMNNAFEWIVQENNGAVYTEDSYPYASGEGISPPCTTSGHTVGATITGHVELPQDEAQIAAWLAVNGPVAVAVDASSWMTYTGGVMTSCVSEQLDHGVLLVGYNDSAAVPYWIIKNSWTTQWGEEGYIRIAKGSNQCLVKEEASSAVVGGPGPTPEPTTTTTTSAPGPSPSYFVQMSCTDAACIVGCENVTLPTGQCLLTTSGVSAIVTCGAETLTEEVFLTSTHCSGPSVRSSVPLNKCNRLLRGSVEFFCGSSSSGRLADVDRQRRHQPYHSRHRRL
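Detergent-free condition (0.00005% Triton X-100) in acetate buffer pH 5.5 with DTT. 1.5 nM enzyme and compound were pre-mixed 15 min, then 2 uM Z-FR-AMC substrate added; reaction progress from fluorescence change between first and third reads (60 s).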
LASV entry inh: qHTS for Inhibitors of binding or entry into cells for Lassa Virus | Lassa virus pseudotype entry inhibition, cell reporter; control for the full effect not named in the record | Potency, µM (doses to about 37.9 µM), without a hit: top-dose activity change, negative = inhibition, usual class: inhibitors | 1.2% of 300,000 active | AID 540256, 2011; active means well fitted inhibition curve with a large enough effect; inconclusive means small, poorly fitted or top-dose-only effect, or effect the other way; inactive means flat fitted curve, though single readings scatter; tested in HEK293 cells; further: on the % scale 0 is the no-effect control and ±100 the full control effect; nearly all actives have a fitted effect of over 50% in size; luciferase read-out
Cruzain inh Det: qHTS Assay for Promiscuous and Specific Inhibitors of Cruzain (with detergent). Potency, µM, for inactives: max response, negative = inhibition, most hits filed as inhibitors. Cruzipain (Trypanosoma cruzi), P25779. 0.43% of 200,000 active. purified cruzain, Z-FR-AMC fluorescence, 0.01% Triton; active means well fitted curve in the direction sought with a large enough effect; inconclusive means small, poorly fitted or top-dose-only effect, or another doubt; inactive means no such curve, though single readings can be large; an effect the other way counts as inactive or inconclusive;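 further: plate controls were neutral wells for no effect and buffer without enzyme for full effect; nearly all actives have a fitted effect of over 40% in size; top concentration of the series not given in the record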
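Detergent-containing arm of a paired screen for aggregation-based inhibition: 0.01% Triton X-100 present. Cruzain at 1.5 nM cleaved 2 uM Z-FR-AMC at pH 5.5 with 5 mM DTT; AMC fluorescence gain over 60 s measured activity.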
StopGo reporter: High Throughput Screening for Foot and Mouth Disease Virus Antivirals; human cells with a luciferase reporter of 2A StopGo recoding; control for the full effect not named in the record; Potency, µM (series often up to 57.9 µM), for inactives: at the top dose signal change, negative = less light; 1.2% of 410,000 active; active = well fitted falling curve with a large enough effect; inconclusive = small, poorly fitted or top-dose-only effect; inactive = no such curve, though single readings can be large or run the other way; tested in HEK293T cells; further: on the % scale 0 is the no-effect control and ±100 the full control effect; nearly all actives have a fitted effect of over 45% in size; luciferase light after 4 h
Marburg entry inh: qHTS for inhibitors of binding or entry into cells for Marburg Virus; 1.8% of 300,000 active; Potency, µM (highest dose often 37.8 µM), inactives show at the top dose activity change, negative = inhibition, usual class: inhibitors; Marburg virus pseudotyped entry inhibition, cell reporter; control for the full effect not named in the record; about a third of the inactives were read at about 46 µM; active = well fitted inhibition curve with a large enough effect; inconclusive = small, poorly fitted or top-dose-only effect, or effect the other way; inactive = flat fitted curve, though single readings scatter; tested in HEK293 cells; about a fifth of its hits are not listed in these tables; further: on the % scale 0 is the no-effect control and ±100 the full control effect; luciferase read-out
NS1 function inh: qHTS Assay for Inhibitors of Influenza NS1 Protein Function. S. cerevisiae slowed by influenza A NS1, growth recovery by OD600. Potency, µM (series often up to 46.1 µM), for the others: top-dose activity, positive = more growth. 0.4% of 270,000 active. AID 2326, 2010; further: actives are rising curves; nearly all actives have a fitted effect of over 50% in size
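S. cerevisiae expressing influenza A NS1, grown in glucose, washed, then diluted 1:100 into pH 6.0 -URA galactose medium with 23 nl compound. Growth recovery read as OD600; NS1-free strain serves as control.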
SARS PLpro yeast: qHTS of Yeast-based Assay for SARS-CoV PLP; S. cerevisiae expressing SARS-CoV PLpro, growth rescue; control for the full effect not named in the record; Potency, µM (series often up to 32.9 µM), for inactives: top-dose activity, positive = growth rescue; 0.19% of 330,000 active; AID 485353, 2010; further: 0% is about no effect; nearly all actives have a fitted effect of over 55% in size; growth read by luminescence after 48 h
* = called active by the depositor; ? = inconclusive; . = not tested or not shown; & = joins results of further samples; [ ] = remark or other dose. Unless noted, the call rests on the fitted dose curve; in most records, active means well fitted rising curve with a large enough effect; inconclusive means small, poorly fitted or top-dose-only effect; inactive means no such curve, though single readings can be large or run the other way. Potency means the concentration at half of the fitted maximal effect.

Compound	RE007 growth inh	Cruzain inh noDet	LASV entry inh	Cruzain inh Det	StopGo reporter	Marburg entry inh	NS1 function inh	SARS PLpro yeast
COc1ccc(CCNC(=O)CCCN2C(=O)C(c3ccccc3)Oc3cccnc32)cc1OC (stereo not given)	-1%	.	.	.	?	.	-13%	-3%
Cc1ccsc1C(=O)NNC(=O)C1C2C=CC(C2)C1C(=O)O (stereo not given)	.	-1%	?	-1.5%	32%[activator]	?	?	-7%
Cc1nc(SC(C(=O)c2ccccc2)c2ccccc2)n[nH]1 (stereo not given)	-23%	19%	-5%	4.3%	?	12%	8%	4%
COc1ccc(/C(O)=C2/C(=O)C(=O)N(CCCN3CCOCC3)C2c2ccc(C)cc2)cc1 (stereo not given)	-14%	.	.	.	-5%	.	3%	2%
CCOc1ccc(NC(=O)CN2C(=O)NC(C)(c3ccc(OC(F)F)cc3)C2=O)cc1 (stereo not given)	9%	.	-17%	.	11%	?	-4%	7%
COc1cc(CNCCSc2nnnn2C)ccc1OCc1ccc(F)cc1	.	-2%	1%[46.1 µM]	-0.3%	0%	?	.	.
COC(=O)CSc1nccc(C)n1	-12%	.	.	.	-1%	.	1%	1%
NS(=O)(=O)c1ccc2nc(-c3ccccc3)c(-c3ccccc3)nc2c1	2%	.	-14%	.	-22%	-26%[46.1 µM]	-6%	6%
O=C(Cn1cnc2scc(-c3ccc(Br)cc3)c2c1=O)N1CCOCC1	-16%	.	.	.	-22%	.	1%	1%
Cc1oc2cc(O)ccc2c(=O)c1Oc1ccc(F)cc1	-2%	.	.	.	-13%	.	-7%	-3%
O=C1c2[nH]nc(-c3ccccc3O)c2C(c2cccc(OCc3ccccc3)c2)N1CCCO (stereo not given)	.	-14%	?	-2.4%	0%	?	.	.
CCCCNC(=O)C1CCN(S(=O)(=O)c2cnc[nH]2)CC1	-1%	6%	7%	3.8%	-8%	12%	-6%	7%
COc1cccc(NC(=O)C(=O)NCCc2csc(-c3ccc(C(F)(F)F)cc3)n2)c1	.	6%	1%[46.1 µM]	-2.5%	0%	.	.	.
O=C(c1ccc(CNS(=O)(=O)c2ccc(Br)cc2)cc1)N1CCC2(CC1)OCCO2	-6%	29%	8%&0%	-2.8%	1%	?	-4%	2%
Cc1ccc(CSc2nc(-c3ccccc3)c(C#N)c(=O)[nH]2)cc1	17%	.	.	.	-27%	.	2%	0%
CCOC(=O)c1csc(NC(=O)CSc2nnc(C3CC3)n2C)n1	5%	1%	14%	2.2%	15%	10%	-1%	4%
CC1Cc2ccccc2N1C(=O)CSc1nnc(CSc2ncccn2)n1C (stereo not given)	6%	5%	-10%	3.1%	1%	-11%	0%	-7%
O=C(CNC(=O)Cc1ccccc1)NCC(=O)N1CCCCC1	4%	.	.	.	?	.	1%	29%
NC(=O)C1CCN(c2ccc(S(=O)(=O)N3CCC(Cc4ccccc4)CC3)cn2)CC1	-1%	.	?	.	?	?	4%	1%
Clc1ccc(-c2cc(CSc3ccccc3)on2)cc1	-15%	-9%	?	4.0%	17%	?	?	3%
CCOC(=O)c1cccc(NC(=O)Cn2c(CC(=O)NC)nc3ccccc32)c1	3%	?	?	-4.2%	-8%	-11%	0%	-2%
Cn1cc(CN2CCCCC2CO)c(-c2ccc(Oc3ccccc3)cc2)n1 (stereo not given)	-1%	.	-29%	.	-15%	?	-2%	0%
O=S(=O)(c1cccs1)N1CCN(C/C=C/c2ccccc2)CC1	0%	11%	-15%	7.1%	-11%	-16%[46.1 µM]	-9%	2%
CC(C(=O)Nc1ccc(C(N)=O)cc1)N1C(=O)c2ccccc2S1(=O)=O (stereo not given)	5%	.	5%	.	3%	-1%[46.1 µM]	.	3%
C=CCn1c(SCc2ccc(F)cc2)nnc1-c1sc2nc(C)cc(C)c2c1N	-15%	.	1%[46.1 µM]	.	-12%	?	-2%	0%
Cc1nn(C(C)C(=O)NNC(=S)Nc2ccc(Cl)cc2)c(C)c1[N+](=O)[O-] (stereo not given)	-1%	3%	-3%	-3.0%	-4%	1%	0%	-9%
COc1ccc(/C=C(\NC(=O)c2ccc(OC)c(OC)c2)C(=O)NCCc2c[nH]c3ccccc23)cc1	8%	?	-18%	0.2%	5%	?	-1%	0%
CCOc1ccc2cc(C#N)c(SCC(=O)NC(C)CC)nc2c1 (stereo not given)	.	13µM*	.	3.3%	.	5%	-3%	-1%
CC(C)(C)c1cnnn1-c1ccc(NC(=O)c2ccc(Br)o2)cc1	-1%	-7%	-19%	-2.3%	-16%	?	-29%	14%
CCNC(=S)N/N=C/c1ccc(OCc2ccc(C(=O)OC)cc2)cc1	10%	-20%	8%	-1.5%	-19%	?	2%	4%
Cc1c(C(=O)N2CCC(C)CC2)c(S(=O)(=O)N2CCN(c3ccc(Cl)cc3)CC2)c(C)n1C	.	?	-11%[46.1 µM]	-3.2%	-7%	.	.	.
Cc1nc(SC2C=CS(=O)(=O)C2)n[nH]1 (stereo not given)	-5%	-10%	-2%	-0.1%	-4%	0%	4%	3%
Fc1ccccc1CSc1nnc(-c2cnccn2)n1Cc1ccco1	22%	-3%	17%	-1.7%	31%[activator]	3%	-22%	9%
O=C(OCc1cn(-c2ccc(Cl)cc2)nn1)c1ccccc1	28%	3%	21%	-0.9%	0%	-7%	-15%	-4%
CCn1c(CNC(=O)c2ccc(OC)cc2)nnc1SCC(=O)Nc1cc(C)ccc1C	.	2%	-6%[46.1 µM]	1.2%	-3%	?	.	.
CC(C)c1ccc(Nc2c([N+](=O)[O-])c(=O)n(C)c3ccccc23)cc1	6%	.	-10%[46.1 µM]	.	-6%	?	-4%	0%
CC(CCc1ccccc1)NC(=O)CSc1cccc[n+]1[O-] (stereo not given)	-11%	.	-5%	.	12%	4%[14.2 µM]	.	0%
CCC(C)[C@H](NC(=O)N1CCC(C)CC1)C(=O)OC (stereo not given in full)	-18%	.	?	.	2%	1%[14.2 µM]	-1%	0%
c1cc2c(cc1C1=NNC(=NC3CC3)SC1)OCCO2	?	.	0.29µM*	.	?	0.33µM*	.	-18%
COc1cccc(NC(=O)c2ccccc2OCc2c(C)noc2C)c1	?	.	-3%	.	7%	-20%	.	5%
CCCCCn1c(=O)[nH]c2cc(C(=O)N3CCN(Cc4ccc5c(c4)OCO5)CC3)ccc2c1=O	-7%	-1%	?	-0.5%	?	?	0%	8%
CCCN1C(=O)c2ccccc2NC1c1ccc(OC)cc1O (stereo not given)	6%	4%	1.6µM*	0.3%	?	?	0%	-2%
O=c1[nH]c(/C=C/c2ccccc2Cl)nc2ccccc12	-5%	.	.	.	8%	.	-4%	7%
O=C(NCc1ccco1)c1ccc(Cl)s1	-6%	.	9%[46.1 µM]	.	-12%	7%[46.1 µM]	.	1%
Cc1cc(C(=O)N2CCN(Cc3ccccc3)CC2)on1	1%	3%	.	2.8%	-15%	.	-1%	-4%
N#CC1=C2SCN(c3ccc(F)cc3)CN2C(=O)CC1c1cccc(F)c1 (stereo not given)	-8%	-16%	.	-6.3%	-2%	.	?	5%
CN(c1ccccc1)S(=O)(=O)c1ccc(Cl)c(C(=O)OCC(=O)NC2CCS(=O)(=O)C2)c1 (stereo not given)	-8%	.	-1%	.	-3%	8%[46.1 µM]	-11%	0%
Cn1c(SCC(=O)N/N=C/C=C\c2ccco2)nc2ccccc21	-16%	10%	-4%	-14%	-10%	-7%	15%	1%
CCN1CCN(C(c2ccc(SC)cc2)c2c(O)cc(C)n(CCOC)c2=O)CC1 (stereo not given)	.	?	?	-2.6%	-24%	.	.	.
Nn1c(SCc2ccccc2F)nnc1-c1ccccn1	-8%	.	-2%	.	51%[activator]	?	0%	1%
OC1(C#CCCN2CCCCC2)c2ccccc2-c2ccccc21	-3%	.	26%	.	-19%	?	.	0%
O=C(NC(=O)c1ccccc1F)Nc1nc(-c2cccs2)cc(C(F)(F)F)n1	-5%	22%	0%	-5.3%	?	-5%	3%	-10%
Cc1cc(C)cc(NC(=O)CSc2oc(-c3ccccc3)nc2S(=O)(=O)c2ccc(Cl)cc2)c1	.	-6%	-13%[46.1 µM]	-1.8%	-11%	.	.	.
O=c1c(-c2ccnn2-c2cccc(Cl)c2)cnc2n1CCS2	6%	-4%	18%	2.0%	11%	1%	6%	-5%
Cc1cccc(-c2nc(Nc3cccc(O)c3)c3ccccc3n2)c1	-6%	.	.	.	-27%	.	-32%	-10%
COc1ccc(NC(=O)CN2CCC3(O)CCCCC3C2c2ccccc2OC)cc1 (stereo not given)	.	9%	.	-0.1%	.	.	-1%	-4%
Cn1c(=O)n(C)c2cc(NC(=O)CCc3ccccc3)c(Br)cc21	-7%	.	.	.	-4%	.	12%	0%
COCC(=O)Nc1nnc(SCC(=O)N2CCCCC2)s1	1%	.	0%[46.1 µM]	.	?	-3%[46.1 µM]	-7%	-1%
O=C(NCc1ccc2c(c1)OCO2)c1sccc1Br	6%	.	11%	.	68%[activator]	-3%	-10%	-1%
CC(=O)N1N=C(c2ccc(Br)cc2)OC12CCCC2	-1%	.	-8%	.	-26%	-13%	-3%	-1%
CCOC(=O)N1CCC(NC(=O)c2cc(S(=O)(=O)N3CCOCC3)ccc2F)CC1	-12%	22%	7%	4.8%	-8%	-10%	6%	1%
